Bioassay records from PubChem.
NPYLR7 agonist: activates Aedes aegypti NPYLR7 receptor; HEK293T NPYLR7/Galpha15, GCaMP6s calcium fluorescence; activation, % at 10 µM; 270,000 compounds, 0.15% hits; in the data active = activation above about 40%;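 note: 0% = vehicle and 100% = reference agonist at the receptor; some compounds past the cut are filed as inactive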
NPYLR7 agonist max-min: recorded beside NPYLR7 agonist, whose call it bears; activation, %; measured here: Max-Min RFU normalised activation; some inactives read as strong as hits;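 span of the calcium signal over five minutes; 0% = vehicle and 100% = native peptide agonist; compound fluorescence can raise it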
* marks the source's active call; other numbers are inactive results; & = joins results of further samples.

Structure | NPYLR7 agonist | NPYLR7 agonist max-min
CC(C)NC(=O)CN1CCN(C(=O)CN2C(=O)[C@H](Cc3ccccc3)NC(=O)c3ccccc32)CC1 | 0 | 4
O=C(NCCc1ccccn1)c1cccc(CSc2nc(Cl)cc(N3CCN(C/C=C/c4ccccc4)CC3)n2)c1 | -16 | -15
O=S(=O)(C(F)F)N1CCC(CNc2cccc(F)n2)CC1 | 12 | 4
COc1ccc(C=CC(=O)OCC(=O)c2ccccc2Br)c(OC)c1 | -4 | -4
Clc1ccc(-c2ccc(CN3CCOCC3)cn2)cc1Cl | 6 | 4
COc1cc(S(=O)(=O)NCc2ccc3c(c2)OCO3)ccc1F | -2 | -3
COC(=O)c1ccc(NC(=O)CSc2nccn3nc(-c4cccc5ccccc45)cc23)cc1 | -4 | -9
CC(C)c1ccc(CC(=O)N2CCC2(C)C(=O)Nc2ccc3nc[nH]c3c2)cc1 (stereo not given) | 4 | 4
CCOc1ccc(NC(=O)CSc2ccc3nnc(CCNC(=O)c4ccccc4)n3n2)cc1 | 9 | -2
Cc1sc2nc(C(C)C)nc(N3CCN(S(=O)(=O)/C=C/c4ccccc4)CC3)c2c1C | 18 | 13

2 entries drawn at random from those above, as already listed:
Structure | NPYLR7 agonist | NPYLR7 agonist max-min
Cc1sc2nc(C(C)C)nc(N3CCN(S(=O)(=O)/C=C/c4ccccc4)CC3)c2c1C | 18 | 13
CC(C)c1ccc(CC(=O)N2CCC2(C)C(=O)Nc2ccc3nc[nH]c3c2)cc1 (stereo not given) | 4 | 4

(more compounds)
Structure | NPYLR7 agonist | NPYLR7 agonist max-min
Cc1ccc(CN2CCC2(C)C(=O)Nc2ccc(C)cc2)cc1 (stereo not given) | 1 | -3
O=C(c1ccc(-c2ccccc2)cc1)N1CCN(c2ccc(-n3cccn3)nn2)CC1 | -3 | -6
CCO[C@H]1COC[C@@H]1n1cc(-c2ccc3c(c2)OCCO3)nn1 | 12 | 10
CCOC(=O)C1CSCCN1c1ccc2nnnn2n1 (stereo not given) | 0 | 1
Cn1cccc1C=NN=C1NC(=O)C(CC(=O)O)S1 (stereo not given) | -8 | -16
CCSc1nc(CC(=O)N(C)Cc2nc(-c3ccncc3)no2)cs1 | 7 | 3
COc1ccc(CCNC(=O)c2cc(NC(C)=O)ccc2Cl)cc1OC | 15 | 0
C[C@@H](NC(=O)OC(C)(C)C)C(=O)NCC1(O)CCCc2ccccc21 (stereo not given in full) | 10 | -17
COc1cc(=O)n(-c2ccc(F)cc2)nc1C(=O)N1CCN(c2ccccc2)CC1 | 12 | 9
CC(C)N=C1NN=C(c2ccc(Cl)cc2Cl)CS1 | -1 | -3

Part of the list above, as labelled records.
structure: COc1cc(S(=O)(=O)NCc2ccc3c(c2)OCO3)ccc1F
  NPYLR7 agonist: -2
  NPYLR7 agonist max-min: -3

structure: COC(=O)c1ccc(NC(=O)CSc2nccn3nc(-c4cccc5ccccc45)cc23)cc1
  NPYLR7 agonist: -4
  NPYLR7 agonist max-min: -9

structure: CC(C)c1ccc(CC(=O)N2CCC2(C)C(=O)Nc2ccc3nc[nH]c3c2)cc1 (stereo not given)
  NPYLR7 agonist: 4
  NPYLR7 agonist max-min: 4

structure: CCOc1ccc(NC(=O)CSc2ccc3nnc(CCNC(=O)c4ccccc4)n3n2)cc1
  NPYLR7 agonist: 9
  NPYLR7 agonist max-min: -2

Carrying on.
Structure | NPYLR7 agonist | NPYLR7 agonist max-min
COc1ccc(Cl)cc1Cn1c(C)c(C(=O)NCc2ccco2)sc1=O | 6 | 0
CC1=C(C(=O)OCC(C)C)C(c2ccncc2)C2=C(CC(c3ccccc3)CC2=O)N1 (stereo not given) | 4 | 2
O=C1CCCN1CC1CCCN(C(=O)Nc2nncs2)C1 (stereo not given) | 2 | 23
COc1ccc(-c2[nH]nc3c2C(c2cccc(OC)c2OC)C(C#N)C(=N)O3)cc1 (stereo not given) | -2 | -5
O=C(Cc1cccs1)N1CCc2c(cc(-c3ccccc3F)c(=O)n2Cc2ccncc2)C1 | 12 | 4
CC(C)Oc1ccc(CN2CCC3(CCNCC3)C2)cc1 | 12 | 8
CC(C)(C)OC(=O)N[C@@H](CC(=O)OC1CCCCC1)C(=O)N1CCC2(CC1)OCCO2 | -8 | -13
Cc1nc2ccccn2c(=O)c1NC(=O)C(c1ccccc1)c1ccccc1 | 4 | 2
CN1CCCC(C(=O)N2CCc3c(nc(-c4ccccc4)[nH]c3=O)C2)C1 (stereo not given) | 10 | 6
COc1ccccc1CCNC(=O)C(C1CCCC1)N1CCN(C(=O)c2ccccc2C)CC1 (stereo not given) | -9 | -3

New compounds follow
Structure | NPYLR7 agonist | NPYLR7 agonist max-min
CSCCC(=O)N(CCc1ccccc1)CC1CCN(C)CC1 | 11 | 3
NCCC(O)(P(=O)(O)O)P(=O)(O)O | -3 | -9
Cc1cc(C)cc(-n2nnc3c(=O)n(Cc4ccc(C(F)(F)F)cc4)cnc32)c1 | -1 | -5
CCSCCNC(=O)CNS(=O)(=O)c1ccc(C)cc1C | -4 | -8
COc1ccc2[nH]c3nc4ccccc4nc3c2c1 | 4 | 3
COCCN(Cc1cc(NC(=O)C2CC2)ccc1N(C)C)C(=O)NC(C)(C)C | -3 | 5
COc1cc2c(cc1OC)CN(C1CCCN(C(=O)c3ccnn3C)C1)CC2 (stereo not given) | 14 | 11
COc1ccc2[nH]cc(C3CCN(S(=O)(=O)c4cccc(Cl)c4C)CC3)c2c1 | 25 | 13
Cc1ccc(C(=O)O)cc1S(=O)(=O)N1CCCc2cc(S(=O)(=O)N3CCCCC3)ccc21 | 10 | 5
COc1ccnc(NCC(c2c(F)cccc2Cl)N(C)C)n1 (stereo not given) | 5&12 | 12&8

Next section:
Structure | NPYLR7 agonist | NPYLR7 agonist max-min
CCc1ccc(CNC(=O)Cc2c(C)noc2C)s1 | 0 | -1
COc1ccc(CCNC2CCN(c3ccc(C(=O)N[C@H]4CCCCNC4=O)cc3)CC2)cc1 | 14 | 3
O=C(NCc1cccc(Cl)c1)c1cc(=O)[nH]c2ccccc12 | 6 | 4
CCN(CC)c1ccc(CN(Cc2ccco2)C(=O)c2cccs2)c(OS(C)(=O)=O)c1 | -2 | 7
N#Cc1ccccc1CS(=O)(=O)N1CCN(S(=O)(=O)C=Cc2ccccc2)CC1 | -3 | -4
CN(C)CCNC(=O)CC(c1cccc(C(F)(F)F)c1)c1cn(C)c2ccccc12 (stereo not given) | -1 | -1
O=c1[nH]c(/C(Cl)=C\c2ccc(N3CCOCC3)cc2)nc2ccccc12 | -6 | -6
CC(C)(C)C(=O)N1CC=C2C(C#N)C(=N)C(C#N)(C#N)C(c3ccoc3)C2C1 (stereo not given) | 5 | 2
CC(=O)Oc1cccc(C(=O)N2CCC(Cc3ccc4c(c3)OCO4)CC2)c1C | -1 | 4
COCCn1c(=NC(=O)C2=COCCO2)sc2cc(S(C)(=O)=O)ccc21 | 2 | 0

Going on with the list.
Structure | NPYLR7 agonist | NPYLR7 agonist max-min
O=C(CCCN1CCCCC1=O)NC1CCCN(C2CCCCCC2)C1 (stereo not given) | 15 | -1
COc1cccc(-c2nc3ccc(Cl)cn3c2NC(C)(C)C)c1 | -3&3 | -2&12
CCNc1ncnc2c1nnn2C | 11 | 9
Cc1ccc(Oc2ncccc2CNc2ncccn2)c(F)c1F | 13 | 8
CC(c1ccccc1)N(Cc1cc(NC(=O)c2cccs2)ccc1N(C)C)C(=O)c1ccccc1Cl (stereo not given) | 3 | 5
CCCCCCc1ccc(C(=O)N(CCN2CCOCC2)CC(=O)N(Cc2ccc(F)cc2)Cc2ccc(C)o2)cc1 | 7 | 9
CCn1nnc2c(NCC3CCCO3)ncnc21 (stereo not given) | 15 | 12
CN(C)C1N(C(=O)c2ccccc2)N=C2c3ccccc3S(=O)(=O)N21 (stereo not given) | 2 | 1
CCOCCn1cc(C2CCN(C(=O)c3c(F)c(F)cc(F)c3F)CC2)c2ccccc21 | -6 | 6
COc1ccc(C2=Nc3nnnn3C(c3ccc(F)cc3)C2)cc1 (stereo not given) | 22 | 13

As a short view, 2 of the compounds above.
Structure | NPYLR7 agonist | NPYLR7 agonist max-min
COc1ccnc(NCC(c2c(F)cccc2Cl)N(C)C)n1 (stereo not given) | 5&12 | 12&8
CCc1ccc(CNC(=O)Cc2c(C)noc2C)s1 | 0 | -1

Next section.
Structure | NPYLR7 agonist | NPYLR7 agonist max-min
Nc1ccc(-c2nn3cnnc3s2)c(O)c1 | -12 | -17
Cc1ccccc1S(=O)(=O)NC(=O)C1(C)CCN1C(=O)c1ccc(C2CCCCC2)cc1 (stereo not given) | 0 | 0
Cc1nc(CC(=O)NC2CCc3[nH]c4cc(Cl)cc(Cl)c4c3C2)c(C)s1 (stereo not given) | 15 | 13
CCn1ccnc1CN1CCCC(N2CCN(c3ccccc3C)CC2)C1 (stereo not given) | 2 | 0
O=C(Nc1ccc(Oc2cccnc2)cc1)C1CCN(Cc2cc(Cl)ccc2O)CC1 | -1 | -3
O=C(NCC1CCCO1)C(Cc1ccccc1)NC(=O)C1CC(c2cccc(F)c2)=NO1 (stereo not given) | -2 | 11
CCCC(=O)C1=C(c2ccc(C)cc2)N(C(=O)CCC)n2cnnc2S1 | 5 | 0
CN(CCNc1c(C#N)c(=O)n(C)c(=O)n1C)c1ccccc1 | 14 | 10
CCOc1ccccc1NC(=O)c1cc2c(s1)CCC2 | -1 | -1
COc1cccc(Cc2nsc(N3CCC(CNC(=O)C(c4ccccc4)c4ccccc4)CC3)n2)c1 | -1 | 2

Next part.
Structure | NPYLR7 agonist | NPYLR7 agonist max-min
O=C(c1ccc2c3c(cccc13)CC2)N1CCN(S(=O)(=O)c2ccc3c(c2)OCCCO3)CC1 | 0 | 52
CCCc1nc(N2CCN(C(=O)Nc3cccc(Br)c3)CC2)c2c(C)nn(-c3ccccc3)c2n1 | 11 | 15
CCOC(=O)CCCNC(=O)CSc1nnc(-c2ccc(Cl)cc2)n1CC | 2 | 2
Cc1cc(C)n(CCNC(=O)c2csc(-c3cc4ccccc4n3C)n2)n1 | 5 | 2
O=C1/C(=C/c2cccnc2)COc2c(F)cccc21 | -4 | -7
Cc1ccc(CSCCNC(=O)c2oc3ccccc3c2CSc2ncn[nH]2)cc1 | -1 | -2
COCCc1nnc2sc(/C=C/c3ccc(OC)cc3)nn12 | -2 | -3
Cc1cccc(-c2cc(N3CCN(Cc4cccnc4)CC3)n3nccc3n2)c1 | -8 | -11
Cc1ccc(-c2noc(-c3cc(-c4ccccc4)n[nH]3)n2)cc1 | -14 | -19
CCOC(=O)N1CCC(NC(=O)c2cc(=O)c(OCc3ccccc3)c[nH]2)CC1 | 2 | -1

Other structures.
Structure | NPYLR7 agonist | NPYLR7 agonist max-min
COC(=O)C1=C(C)N=c2s/c(=C\c3ccccc3OC(C)=O)c(=O)n2C1c1ccccc1 (stereo not given) | -10 | -19
O=C(O)CN(Cc1ccccc1)c1nc(Cc2ccc(F)cc2)ns1 | 4 | 12
Cc1cccc(NC(=O)CCNS(=O)(=O)N(C)C2CCCCC2)n1 | -1 | -3
CC(CC(=O)Nc1ccc(Cl)c(C#N)c1)NC(=O)C1CCCC1 (stereo not given) | 6 | 2
O=C1CC(c2ccccc2)CC2=Nc3ccccc3NC(c3ccccc3)C12 (stereo not given) | 2 | 2
O=C1C2CCCN2C(=S)N1c1ccccc1 (stereo not given) | 0 | -2
CC(C)n1cncc1CN1CCCC2(C1)CN(C)C(=O)O2 (stereo not given) | 1 | 0
CC1CCCN(S(=O)(=O)c2cc(C(=O)N3CCC(C)(O)C3)ccc2Cl)C1 (stereo not given) | 4 | 2
CCCc1cnc2c(c1SCc1ccccn1)c(=O)n(C)c(=O)n2C | 3 | 3
CNC(=O)C(=O)N1C2CCC3(CC2)OC(=O)N(Cc2ccccc2)CC13 (stereo not given) | 22 | 24

Following part:
Structure | NPYLR7 agonist | NPYLR7 agonist max-min
CC1(CCc2ccccc2)CCN(C(=O)c2ccccc2O)C1 (stereo not given) | -4&2 | -6&24
CC(C)c1cc(C(=O)N2[C@@H]3CC[C@H]2CN(C)C(=O)C3)n[nH]1 | 23 | 14
O=C(CN1C(=O)C2CCCCC2C1=O)NOCc1ccccc1 (stereo not given) | 0 | -3
O=S1(=O)CCC(N=Cc2ccccc2O)C1 (stereo not given) | 2 | 2
O=C(Nc1cccc2ccccc12)C1CCCCN1S(=O)(=O)c1cccs1 (stereo not given) | 3 | 3
CCCCCCCC(=O)N(CC(=O)NCC(=O)Nc1cccc(C)c1)C1CC1 | 17 | 25
Cc1cccc(Cn2c(CN3CCCCC3C)nc3c2c(=O)n(C)c(=O)n3C)c1 (stereo not given) | -9 | -11
Cc1ccc(OCC(O)CN2CCCC2c2nnc3ccccn23)c(C)c1 (stereo not given) | 12 | 11
COc1ccc(-c2csc(=NCC3CCCCC3)n2NC(=O)CNc2ncc(C(F)(F)F)cc2Cl)cc1 | 3 | -3
C=CCOCC(O)CN1CCC(=O)N(CCOC)Cc2c1ccc(OC)c2OCC=C (stereo not given) | 24 | 28

The listing continues.
Structure | NPYLR7 agonist | NPYLR7 agonist max-min
Cc1cc(C(=O)N(Cc2ccco2)c2nc3c(F)cc(F)cc3s2)n(C)n1 | -7 | -7
O=C1CSC(c2ccc3c(c2)OCO3)N1c1ccc(F)cc1F (stereo not given) | -5 | -2
N#CC1(C(=O)N2CC3CC4CC(C3)CC2C4)CCCC1 | 1 | 2
Cc1ccc(Cc2nc(N3CCN(C(=O)c4ccco4)CC3)c3c(-c4cccnc4)noc3n2)cc1 | 10 | 1
O[C@H]1CCCC[C@@H]1N1CCN(c2ncccn2)CC1 | 22 | 12
CCOC(=O)[C@@H]1[C@H](c2ccccc2)[C@@H](NC(C)=O)[C@H]2CCCN21 | 1 | 4
CC(C)(C)C1CCC2(CC1)Nc1cccc3cccc(c13)N2 | -10 | -16
CN(C)S(=O)(=O)NCC1CCCN(Cc2cccc(Oc3ccc(Cl)cc3)c2)C1 (stereo not given) | -9 | -9
CN(Cc1nc2ccccc2[nH]1)Cc1cccc2ncccc12 | 19 | 5
O=C(NNC(=O)c1ccc(COc2ccccc2)o1)c1ccco1 | 3 | 2

Not all compounds are listed (hit frequency here may not be typical).
